PMP22 txn prim – modulates PMP22 transcription in S16 Schwann cells | S16 Pmp22-F2sN Schwann cells (luciferase reporters placed in the Pmp22 gene), FLuc/NLuc coincidence luminescence, 24 h | Potency, µM (doses to about 57.5 µM), inactives show top-dose activity change, negative = inhibition, hits mostly inhibitors | hit rate 2% among 43,000 | AID 1508649; active = clear falling dose curves in both reporters; inconclusive = both reporters move, but less clearly or upward; inactive = either reporter flat; the % is the NLuc reporter signal; also: % is scaled to controls: 0 for no effect and ±100 for the full control effect; some results filed as inactive show a strong effect at the top dose
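Rat S16 Pmp22-F2sN cells, 500-1,000/well in phenol red-free DMEM + 10% FBS, compound-treated 24 h (37C, 5% CO2). Luminescence: FLuc read, Stop&Glo added, NLuc read.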
HTT prom inh – inhibitors of huntingtin promoter activity; HEK293 HTT promoter firefly luciferase reporter (activity 0% = vehicle and -100% = no light), 24 h; Potency, µM (series often up to 57.5 µM), for the others: at the top dose activity change, negative = inhibition, hits mostly inhibitors; hit rate 0.93% among 48,000; active = well fitted inhibition curve with a large enough effect; inconclusive = small, poorly fitted or top-dose-only effect; inactive = no such curve, though single readings can be large or run the other way; also: nearly all actives have a fitted effect of over 50% in size
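Firefly luciferase readout (Dual-Glo, 10 min RT) after 24 h, 37 °C compound exposure (final up to 57.5 uM) of HEK293 reporter cells cultured 24 h beforehand; PTC124 at 50 uM final as control inhibitor; activity scaled vehicle 0%, zero RLU -100%.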
Numbers without * were called inactive; [ ] = remark or other dose. Potency is read from the fitted curve at half-maximal effect.

For Cc1ccc(Nc2ccc3cc(S(=O)(=O)N4CCCCC4)ccc3n2)cc1F the results were PMP22 txn prim inconclusive and HTT prom inh -16.1%.
For O=C(Nc1ccc(F)cc1)[C@H](CSCc1ccccc1)N1Cc2ccccc2C1=O the results were PMP22 txn prim 1.9% and HTT prom inh -18.3%.
For CC1(C)O[C@@H]2C[C@H]3[C@@H]4CCC5=CC(=O)C=C[C@]5(C)[C@@]4(F)[C@@H](O)C[C@]3(C)[C@]2(C(=O)CO)O1 the results were HTT prom inh 0.1%.
`Cc1ccc(N2CC(NC(=O)Cc3ccc(F)cc3)CC2=O)cc1` (configuration not stated) gave PMP22 txn prim 7.6% and HTT prom inh -16.6%.
CCc1ccccc1NC(=O)C(=O)NCC(c1cccnc1)N1CCc2ccccc21 (configuration not stated) was read as PMP22 txn prim inconclusive and HTT prom inh inconclusive.
Screening COc1cccc(N2CCN(S(=O)(=O)c3ccc(-n4cnnn4)cc3)CC2)c1 returned PMP22 txn prim 8.3% and HTT prom inh 0.6%.
`CCCN(CCC)C(=O)Cn1c(=O)n(-c2ccc(OC)cc2OC)c(=O)c2c3c(sc21)CCC3` gave PMP22 txn prim 3.0% and HTT prom inh -12.1%.
Screening CCOC(=O)c1ccc(NC(=O)CCS(=O)(=O)c2ccc(C)cc2)cc1 returned PMP22 txn prim inconclusive and HTT prom inh -25.8%.
For Cc1ccc(N(C)S(=O)(=O)c2ccc3[nH]c4c(c3c2)CCCC4)cc1 the results were PMP22 txn prim inconclusive and HTT prom inh -10.9%.
COc1cc(-c2ccno2)ccc1S(=O)(=O)N1CCN(c2cccc(Cl)c2)CC1 was read as PMP22 txn prim -23.0% and HTT prom inh inconclusive.
For COC(=O)c1ccc2c(c1)N(Cc1cc(C)ccc1C)C(=O)c1ccccc1S2 the results were PMP22 txn prim -18.1% and HTT prom inh -20.6%.
`COC(=O)c1ccccc1NC(=O)CCCN1C(=O)C(c2ccccc2)Oc2cccnc21` (configuration not stated) gave PMP22 txn prim inconclusive and HTT prom inh -15.5%.

Ordered by SMILES length (smallest number first): some entries from above
For Cc1ccc(Nc2ccc3cc(S(=O)(=O)N4CCCCC4)ccc3n2)cc1F the results were PMP22 txn prim inconclusive and HTT prom inh -16.1%.
CCc1ccccc1NC(=O)C(=O)NCC(c1cccnc1)N1CCc2ccccc21 (configuration not stated) was read as PMP22 txn prim inconclusive and HTT prom inh inconclusive.
For COC(=O)c1ccc2c(c1)N(Cc1cc(C)ccc1C)C(=O)c1ccccc1S2 the results were PMP22 txn prim -18.1% and HTT prom inh -20.6%.
COc1cc(-c2ccno2)ccc1S(=O)(=O)N1CCN(c2cccc(Cl)c2)CC1 was read as PMP22 txn prim -23.0% and HTT prom inh inconclusive.
`COC(=O)c1ccccc1NC(=O)CCCN1C(=O)C(c2ccccc2)Oc2cccnc21` (configuration not stated) gave PMP22 txn prim inconclusive and HTT prom inh -15.5%.
`CCCN(CCC)C(=O)Cn1c(=O)n(-c2ccc(OC)cc2OC)c(=O)c2c3c(sc21)CCC3` gave PMP22 txn prim 3.0% and HTT prom inh -12.1%.
For CC1(C)O[C@@H]2C[C@H]3[C@@H]4CCC5=CC(=O)C=C[C@]5(C)[C@@]4(F)[C@@H](O)C[C@]3(C)[C@]2(C(=O)CO)O1 the results were HTT prom inh 0.1%.

More results.
CC(=O)N1CCc2cc(Br)cc(S(=O)(=O)NCCc3ccc(Cl)cc3)c21 was read as PMP22 txn prim -7.7% and HTT prom inh -8.7%.
CCc1ccc(-n2c(=O)c3c(C)c(C(=O)N(C)C)sc3n(Cc3ccccc3F)c2=O)cc1 was read as PMP22 txn prim -14.8% and HTT prom inh -9.7%.
`CC(C)COc1ccc(C(=O)NCC2(N3CCN(C)CC3)CCCCC2)cc1` gave PMP22 txn prim inconclusive and HTT prom inh -10.0%.
Screening COc1cc(CN(C(=O)c2ccc(C)cc2)c2ccccn2)cc(OC)c1OC returned PMP22 txn prim -29.3% and HTT prom inh inconclusive.
For O=C(Nc1cc(Cl)cc(Cl)c1)c1ccc(F)c(S(=O)(=O)N2CCCC2)c1 the results were PMP22 txn prim inconclusive and HTT prom inh inconclusive.
CCOCCCNC(=O)Nc1cc(C(=O)NCc2ccc(C(C)C)cc2)ccc1N1CCCC1 was read as PMP22 txn prim -28.0% and HTT prom inh inconclusive.
CCN1c2ccccc2-c2nc(SCC(=O)NCc3ccc(C)cc3)ncc2S1(=O)=O was read as PMP22 txn prim -6.1% and HTT prom inh -22.4%.
COc1ccc(CCNC(=O)c2cc3c(-c4ccc(OC)c(OC)c4)nn(C)c3s2)cc1OC was read as PMP22 txn prim inconclusive and HTT prom inh -18.8%.
`CCOc1ccccc1C(=O)NCc1ccc2c(c1)CCN2C(=O)c1ccccc1` gave PMP22 txn prim inconclusive and HTT prom inh -31.2%.
Screening CCOc1ccc(Sc2cc(C(=O)NCCCOC)c3ccccc3n2)cc1 returned PMP22 txn prim -17.4% and HTT prom inh -20.8%.
COc1ccc(CCNC(=O)c2ccc(Cn3c(=O)c4ccccc4n(Cc4cc(C)ccc4C)c3=O)cc2)cc1OC was read as PMP22 txn prim inconclusive and HTT prom inh -7.0%.
Cc1cccc(OC(=O)c2cc(-c3ccc(C)c(C)c3)on2)c1 was read as PMP22 txn prim -5.4% and HTT prom inh -3.8%.
For COc1ccc(-n2nc3c(N4CCCC(C(=O)NCCc5ccc(C)cc5)C4)nnc(C)c3c2C)cc1 (configuration not stated) the results were PMP22 txn prim inconclusive and HTT prom inh inconclusive.
Cc1c(C(=O)N2CCC(c3nc4ccccc4s3)CC2)oc2ccc(Cl)cc12 was read as PMP22 txn prim -2.8% and HTT prom inh -17.6%[11.5 µM].
Screening CCc1ccccc1NS(=O)(=O)c1ccc(NC(=O)N2CCCC2)cc1 returned PMP22 txn prim -4.2% and HTT prom inh inconclusive.
CCc1nnc2c(NCc3ccc(F)cc3)nc3ccccc3n12 was read as PMP22 txn prim inconclusive and HTT prom inh -12.9%.
`CCN1C(=O)C(Cc2nc3ccccc3c(=O)n2C)c2cc(C)ccc21` (configuration not stated) gave PMP22 txn prim -2.2% and HTT prom inh -14.4%.
For Cc1cccc(NC(=O)CSc2nc3c(oc4ccccc43)c(=O)n2C(C)C)c1 the results were PMP22 txn prim inconclusive and HTT prom inh -24.3%.
For COc1cc(NC(=O)c2ccc(NC(=O)N3CCSc4ncccc43)cc2)cc(OC)c1 the results were PMP22 txn prim -4.8% and HTT prom inh -10.8%.
Screening COc1ccc(S(=O)(=O)n2nc(C)c(S(=O)(=O)N3CCCCCC3)c2C)cc1 returned PMP22 txn prim 5.5% and HTT prom inh -7.9%.
For CCC(C)NC(=O)Cn1c(=O)n(-c2ccc(C)c(C)c2)c(=O)c2c(C)c(C(=O)N(CC)CC)sc21 (configuration not stated) the results were PMP22 txn prim 9.2% and HTT prom inh 0.0%.
Screening O=C(NCC(c1ccc2c(c1)OCO2)N1CCN(c2ccccc2)CC1)C(=O)Nc1ccccc1F (configuration not stated) returned PMP22 txn prim -19.7% and HTT prom inh -20.4%.
For CCc1cccc(Nc2ncnc3onc(-c4ccc(F)cc4)c23)c1 the results were PMP22 txn prim -49.8% and HTT prom inh -22.5%.
CCOc1cc(-c2nnc(SCC(=O)NCc3ccccc3)nc2-c2ccc(OC)c(OCC)c2)ccc1OC was read as PMP22 txn prim 8.91µM* and HTT prom inh inconclusive.
`Cc1ccc(NC(=O)c2sc3nc4n(c(=O)c3c2C)CCCCC4)c(Br)c1` gave PMP22 txn prim -8.9% and HTT prom inh 1.8%.
`Cn1c(=O)n(-c2ccc(F)c(Cl)c2)c(=O)c2sc3ccccc3c21` gave PMP22 txn prim 1.6% and HTT prom inh -7.3%.
Screening CCN(c1ccc(OC)cc1)S(=O)(=O)c1ccc2[nH]c(=O)ccc2c1 returned PMP22 txn prim 7.6% and HTT prom inh -26.3%.
For COc1ccc(C2c3c(oc4ccc(C)cc4c3=O)C(=O)N2CCCN2CCOCC2)cc1OC (configuration not stated) the results were PMP22 txn prim -28.9% and HTT prom inh 1.5%.
For Cc1cccc(-n2ncc(C(=O)N3CCC(C)CC3)c2C2CCN(C(=O)OC(C)(C)C)CC2)c1 the results were PMP22 txn prim -4.8% and HTT prom inh 3.6%.
Screening COc1ccc(S(=O)(=O)N2CCN(C(=O)c3cc(-c4ccc(Br)cc4)n[nH]3)CC2)cc1OC returned PMP22 txn prim inconclusive and HTT prom inh inconclusive.
Screening CCc1ccc(NC(=O)c2ccc3c(O)c(S(=O)(=O)c4ccccc4)c(=O)[nH]c3c2)cc1 returned PMP22 txn prim 16.5% and HTT prom inh 15.9%.
CC(=O)N(O)CCCCCNC(=O)CCC(=O)N(O)CCCCCNC(=O)CCC(=O)N(O)CCCCCN was read as HTT prom inh -21.8%.
`COc1ccc(N2CCN(S(=O)(=O)c3ccc4c(c3)CC(C)N4C(C)=O)CC2)cc1` (configuration not stated) gave PMP22 txn prim 7.1% and HTT prom inh inconclusive.
COc1ccccc1NC(=O)CSc1oc(-c2cccs2)nc1S(=O)(=O)c1ccc(Br)cc1 was read as PMP22 txn prim 7.6% and HTT prom inh -32.0%.
CCc1ccccc1NS(=O)(=O)c1ccc2[nH]cc(C(=O)NC3CCCC3)c(=O)c2c1 was read as PMP22 txn prim -16.2% and HTT prom inh -22.4%.
Screening COc1ccc(NCc2nc3ccccc3n2CCOc2ccccc2C)cc1 returned PMP22 txn prim inconclusive and HTT prom inh -18.0%.
`CC(C)c1ccc(NC(=O)CS(=O)(=O)c2cccc3nsnc23)cc1` gave PMP22 txn prim inconclusive and HTT prom inh -7.3%.
For Cc1ccc(NC(=O)C2CCCN(c3ncnc4c3nc3n4CCCCC3)C2)cc1F (configuration not stated) the results were PMP22 txn prim inconclusive and HTT prom inh -47.2%.
For CN1CCN(C(CNC(=O)C(=O)Nc2ccccc2)c2ccc3c(c2)OCO3)CC1 (configuration not stated) the results were PMP22 txn prim 9.7% and HTT prom inh -10.4%.
`CC(=O)Nc1ccc(C2Sc3ccccc3NC3=C2C(=O)c2ccccc23)cc1` (configuration not stated) gave PMP22 txn prim 3.3% and HTT prom inh 29.0%.
For O=C(Cn1cc(SCc2ccc(Br)cc2)c2ccccc21)N1CCCCC1 the results were PMP22 txn prim inconclusive and HTT prom inh -6.2%.
O=C(CSc1ncc(S(=O)(=O)c2ccc(Cl)cc2)c(=O)[nH]1)Nc1cccc(C(F)(F)F)c1 was read as PMP22 txn prim 3.6% and HTT prom inh -4.4%.
For CCOc1ccc(-n2c(SCC(=O)Nc3cccc(Cl)c3)nc3c(oc4ccccc43)c2=O)cc1 the results were PMP22 txn prim 0.7% and HTT prom inh -11.9%.
For CCc1ccccc1NS(=O)(=O)c1ccc2[nH]cc(C(=O)N(CC(C)C)CC(C)C)c(=O)c2c1 the results were PMP22 txn prim 2.9% and HTT prom inh -4.8%.
Screening CCOC(=O)c1noc2ncn(Cc3cccc(C#N)c3)c(=O)c12 returned PMP22 txn prim 0.3% and HTT prom inh 1.1%.
For CC(=O)N1CCc2c(sc(NC(=O)CSc3ccc(F)cc3)c2-c2nc3ccccc3s2)C1 the results were PMP22 txn prim inconclusive and HTT prom inh inconclusive.
Screening CCOc1ccc(-n2c(SCc3nc(-c4ccc(OC)cc4)no3)nnc2-c2ccncc2)cc1 returned PMP22 txn prim inconclusive and HTT prom inh -24.5%.
`Cc1ccc(CN(C(=O)COc2ccc(Cl)c(C)c2)C2CCS(=O)(=O)C2)o1` (configuration not stated) gave PMP22 txn prim inconclusive and HTT prom inh -28.5%.

2 compounds picked at random from the list so far:
For CN1CCN(C(CNC(=O)C(=O)Nc2ccccc2)c2ccc3c(c2)OCO3)CC1 (configuration not stated) the results were PMP22 txn prim 9.7% and HTT prom inh -10.4%.
`Cc1ccc(CN(C(=O)COc2ccc(Cl)c(C)c2)C2CCS(=O)(=O)C2)o1` (configuration not stated) gave PMP22 txn prim inconclusive and HTT prom inh -28.5%.

New compounds follow:
For Cn1c(C(=O)NCc2cccc(Cl)c2)cc2oc3ccccc3c21 the results were PMP22 txn prim -5.9% and HTT prom inh -15.6%.
For CC(=O)OCc1cnc(C)c2oc(=O)c(C(=O)Nc3cccc(F)c3)cc12 the results were PMP22 txn prim -20.9% and HTT prom inh -3.8%.
For COc1ccccc1N1CCN(C(=O)CSc2nc3ccccc3nc2Cc2ccc(F)cc2)CC1 the results were PMP22 txn prim -12.1% and HTT prom inh 1.3%.
Screening CC[N+](C)(CC)CCOC(=O)C1c2ccccc2Oc2ccccc21 returned HTT prom inh 6.0%.
For CC(=O)OC(C)OC(=O)C(C)c1ccc(-c2ccccc2)c(F)c1 (configuration not stated) the results were HTT prom inh 5.3%.
Cc1ccc(NC(=O)c2cc(S(=O)(=O)N3CCc4ccccc43)cn2C)c(Cl)c1 was read as PMP22 txn prim -22.0% and HTT prom inh inconclusive.
`CN1C(=O)CC(=O)N(C)c2cc(S(=O)(=O)N(C)Cc3ccccc3)ccc21` gave PMP22 txn prim -5.4% and HTT prom inh -18.7%.
Screening COc1cc([C@@H]2c3cc4c(cc3[C@@H](O[C@@H]3O[C@@H]5CO[C@@H](C)O[C@@H]5[C@H](O)[C@@H]3O)[C@H]3COC(=O)[C@H]23)OCO4)cc(OC)c1O returned HTT prom inh -29.1%.

Compound activity as filed in PubChem BioAssay.

These rows are one share of the data (hit frequency here may not be typical).
